Vaccinia pol inh: inhibitors of vaccinia virus processive DNA synthesis (E9 polymerase); in vitro processive DNA synthesis, absorbance read-out; hits give low values; some inactives read as strong as hits; normalized absorbance, % (concentration not given with the values); 0.94% of 46,000 active;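 active = replicate mean up to 90% and picked by the depositor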;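 note: 100% = median of the test wells of a plate; 100 nL library stock went into each well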
Active calls of the source: *.

Start of the data: the first 2 entries (preview)
SMILES	Vaccinia pol inh
O=C(COC(=O)c1c2c(nc3ccccc13)CCCC2)Nc1nc2ccccc2s1	100
Cc1cc(C)nc(NC(=O)c2c(C)nc3sccn23)c1	108

Results, from the first entry:
SMILES	Vaccinia pol inh
O=C(COC(=O)c1c2c(nc3ccccc13)CCCC2)Nc1nc2ccccc2s1	100
Cc1cc(C)nc(NC(=O)c2c(C)nc3sccn23)c1	108
O=C(OCC1C(COC(=O)C2CC2)C1(Cl)Cl)C1CC1 (stereo unspecified)	99
CC(C)C(=O)Nc1cnc2ccccc2c1	93
COc1ccccc1CN1CC(C(=O)NC2CCCCC2)CC1=O (stereo unspecified)	107
CN(C1CCCCC1)S(=O)(=O)c1csc(C(N)=O)c1	97
Cc1ncc(CO)c2cc(C(=O)Nc3ccccc3)c(=Nc3ccccc3)oc12	103
CCN1CCC(N(Cc2ccco2)C(=O)Nc2cc(C)cc(C)c2)CC1	92
O=C(Cc1cccc2ccccc12)NC1CCCCNC1=O (stereo unspecified)	100
Cc1ccc(C2=NN=C(NC(=O)C(F)(F)F)SC2)cc1	100
Cc1cc(-c2ccc3ccccc3n2)nc2ccc3ccccc3c12	99
COC(=O)/C(=C/c1ccc2c(c1)OCO2)NC(=O)c1ccc(C(C)(C)C)cc1	101
O=C(O)c1cc(-c2ccco2)nc2ccccc12	94
Cc1cccc(OCC(O)CN2CC(C)OC(C)C2)c1 (stereo unspecified)	98
CC(C)C(C(=O)O)N1C(=O)/C(=C/c2ccccc2)SC1=S (stereo unspecified)	83*
CC(NCCC(c1ccccc1)c1ccccc1)c1ccccc1 (stereo unspecified)	101
O=S1(=O)C=Cc2ccc(NC(=S)Nc3ccccc3C(F)(F)F)cc21	101
C=CCOC(=O)c1sc(NC(=O)c2sc3ccccc3c2Cl)nc1C	98
CC(C(=O)Nc1ccccc1)N(c1ccccc1)S(C)(=O)=O (stereo unspecified)	87
O=C(COc1cccc2c1CCN(Cc1ccccc1)C2=O)NCc1ccco1	101
O=S(=O)(Nc1ccc(CSc2ccccc2)cc1)c1ccc2c(c1)OCCO2	99
O=C1N=c2ccccc2=C1c1sc(=O)n(-c2ccccc2)c1O	102
Nc1ccc2nc(NC(=O)C34CC5CC(CC(C5)C3)C4)sc2c1	100
O=C(O)C1CC(c2ccccc2O)=NO1 (stereo unspecified)	85
O=c1c2ccccc2c(-c2ccc(F)cc2)nn1CCO	96
CCCC(=O)c1ccc(-c2ccccc2)cc1	96
NC(=NCc1ccco1)NC(=O)c1ccc(Cl)cc1	100
O/N=C(/Cn1nnc(N2CCCC2)n1)c1ccc(Cl)cc1	97
CCC(C)C(NS(=O)(=O)c1cccc(C(F)(F)F)c1)C(=O)NCc1ccccc1 (stereo unspecified)	91
NC(=O)c1ccccc1NS(=O)(=O)c1cccc(C(F)(F)F)c1	95
CN(C)c1ccc(C(c2nnnn2CCOC(=O)Nc2ccc(Cl)cc2)N2CCOCC2)cc1 (stereo unspecified)	101
CC(C)(C)NC(=O)c1ccc2snnc2c1	99
COC(=O)c1ccc(C(=O)Nc2ccc(-c3nc4ccccc4[nH]3)cc2)cc1	101
O=C(Nc1ccc2oc(-c3cccnc3)nc2c1)c1cccs1	89
CC1CCCC(NC(=O)COC(=O)c2ccccc2F)C1C (stereo unspecified)	102
CCc1ccc(NC(=O)C(C)Sc2cccc[n+]2[O-])cc1 (stereo unspecified)	104
Cc1onc(-c2ccccc2)c1NC(=O)N(C)C1CCCCC1	110
N#CC1=C(N)n2ncnc2NC1c1ccc(F)cc1 (stereo unspecified)	99
CCOc1ccc2c(c1)S/C(=C/c1ccccc1O)C2=O	100
O=C1C2C3C=CC(C3)C2C(=O)N1c1nccs1 (stereo unspecified)	96
Cc1cc(O)c(C(C)C)cc1NC(=O)c1ccccc1	101
Cn1c(C(C)(C)C)n[nH]c1=S	94
N=c1oc2ccccc2cc1C(=O)Nc1ccc(F)cc1	100
O=S1(=O)CCN(Cc2csc(-c3cccs3)n2)CC1	102
c1cc2c(cc1-c1nn[nH]n1)OCO2	105
Cc1cn(S(=O)(=O)c2ccc(F)cc2)cn1	100
Cc1ccc(C(=O)COC(=O)c2c(F)cccc2F)cc1	103
Cc1oc(S(=O)(=O)N2CCCC2)cc1C(=O)Nc1ccccc1	97
CCOc1ccc(-n2c(SCC)nc3c([nH]c4ccccc43)c2=O)cc1	96
c1ccc2c(CNCCc3c[nH]c4ccccc34)cccc2c1	96
CCOC(=O)c1c(-c2ccccc2)n(Cc2ccccc2)c2ccc(O)c(CN(C)C)c12	98
CCOC(=O)c1cnc2ccc(OCC)cc2c1NC(C)CC (stereo unspecified)	85
Cc1cc(C)c(N=C(N)NN)cc1C	93
COc1cc(C(=O)Nc2ccc(O)cc2)c2ccccc2n1	85
Cc1nn(C(C)(C)C)c2c1C(c1ccccn1)C1=C(CC(C)(C)CC1=O)N2 (stereo unspecified)	104
CCCCn1c(=NC(=O)c2ccccc2)c(C(=O)OCC)cc2c(=O)n3ccccc3nc21	102
Cc1ccccc1OCC(=O)Nc1ncccn1	95
O=C(Nc1ccc(-c2cnco2)cc1)c1ccc(F)cc1F	101
CCCn1cc(C(CC(=O)O)C(=O)O)c2ccccc21 (stereo unspecified)	99
Cc1cccc(NC(=O)Cc2coc3ccc(C)cc23)c1	112

24 successive compounds from above:
SMILES	Vaccinia pol inh
O=C(Nc1ccc2oc(-c3cccnc3)nc2c1)c1cccs1	89
CC1CCCC(NC(=O)COC(=O)c2ccccc2F)C1C (stereo unspecified)	102
CCc1ccc(NC(=O)C(C)Sc2cccc[n+]2[O-])cc1 (stereo unspecified)	104
Cc1onc(-c2ccccc2)c1NC(=O)N(C)C1CCCCC1	110
N#CC1=C(N)n2ncnc2NC1c1ccc(F)cc1 (stereo unspecified)	99
CCOc1ccc2c(c1)S/C(=C/c1ccccc1O)C2=O	100
O=C1C2C3C=CC(C3)C2C(=O)N1c1nccs1 (stereo unspecified)	96
Cc1cc(O)c(C(C)C)cc1NC(=O)c1ccccc1	101
Cn1c(C(C)(C)C)n[nH]c1=S	94
N=c1oc2ccccc2cc1C(=O)Nc1ccc(F)cc1	100
O=S1(=O)CCN(Cc2csc(-c3cccs3)n2)CC1	102
c1cc2c(cc1-c1nn[nH]n1)OCO2	105
Cc1cn(S(=O)(=O)c2ccc(F)cc2)cn1	100
Cc1ccc(C(=O)COC(=O)c2c(F)cccc2F)cc1	103
Cc1oc(S(=O)(=O)N2CCCC2)cc1C(=O)Nc1ccccc1	97
CCOc1ccc(-n2c(SCC)nc3c([nH]c4ccccc43)c2=O)cc1	96
c1ccc2c(CNCCc3c[nH]c4ccccc34)cccc2c1	96
CCOC(=O)c1c(-c2ccccc2)n(Cc2ccccc2)c2ccc(O)c(CN(C)C)c12	98
CCOC(=O)c1cnc2ccc(OCC)cc2c1NC(C)CC (stereo unspecified)	85
Cc1cc(C)c(N=C(N)NN)cc1C	93
COc1cc(C(=O)Nc2ccc(O)cc2)c2ccccc2n1	85
Cc1nn(C(C)(C)C)c2c1C(c1ccccn1)C1=C(CC(C)(C)CC1=O)N2 (stereo unspecified)	104
CCCCn1c(=NC(=O)c2ccccc2)c(C(=O)OCC)cc2c(=O)n3ccccc3nc21	102
Cc1ccccc1OCC(=O)Nc1ncccn1	95

Next part:
SMILES	Vaccinia pol inh
Cc1nc2n(CC(=O)N3CCCCC3)c3ccccc3n2n1	99
CN(C)S(=O)(=O)c1cccc2c(S(=O)(=O)N(C)C)cccc12	96
COc1ccc(C(=O)COC(=O)C23CC4CC(CC(C4)C2)C3)cc1	82
C=CCn1c(=O)c2ccccc2c2ccccc2c1=O	100
COc1ccc(NC(=O)c2ccn[nH]2)cc1	100
O=C(OC1(C#CCN2CCCCC2)CCCCC1)c1ccccc1	101
CC(=O)Nc1ccc2nc3c(cc2c1)[nH]c1ccccc13	113
CCn1cc(C(=O)NC2CCCCCC2)c(=O)c2cc(S(=O)(=O)N(C)C)ccc21	101
COC(=O)/C=C/c1ccc2c(c1)OCO2	89
CC(=O)NC1CCC(C(=O)O)(c2ccccc2)C1 (stereo unspecified)	102
Cc1ccc(S(=O)(=O)NC2=NCN(C)CN2)cc1	100
O=C(NCCCc1ccccc1)C1c2ccccc2Oc2ccccc21	100
CCCNC(=O)c1ccc2c(c1)ncn2-c1ccccc1OC	100
COc1ccccc1OCC(O)CO (stereo unspecified)	102
CCSCc1nc2ccccn2c1Br	87
Cc1[nH]ccc(=O)c1Oc1ncc(C(F)(F)F)cc1Cl	101
CCSc1nnc(NC(=O)CSc2c[nH]c3ccccc23)s1	98
Oc1ccccc1C(Nc1nccs1)c1ccc2cccnc2c1O (stereo unspecified)	101
Oc1c(C(c2ccccn2)N2CCCCC2)ccc2cccnc12 (stereo unspecified)	105
O=C(NCc1ccc2c(c1)OCO2)c1sc(=S)n2c1[nH]c(=O)c1ccccc12	91
COc1ccc(C)cc1NCc1ccccc1C	89
O=C(OCC(=O)N1CCCC1)c1ccc(O)cc1	106
CC1=CC(C)(C)NC(=S)N1C(C)c1ccccc1 (stereo unspecified)	101
COc1ccc(CCNC(=O)Nc2ccc(Cl)cc2)cc1OC	95
CN1CCN(C(=O)CN2C(=O)S/C(=C\c3ccc(Cl)cc3)C2=O)CC1	96
CC(=O)Nc1cccc(Oc2nc(C)nc3sc4c(c23)CCCC4)c1	100
COC(=O)C1=CN(CC2CCCO2)C=C(C(=O)OC)C1c1ccccc1 (stereo unspecified)	96
O=C(Nc1ccc(OCc2ccccc2)cc1)Nc1cc(C(F)(F)F)ccc1N1CCCC1	116
O=C(c1csc2ccccc12)N1CC=C(c2ccccc2)CC1	111
O=c1[nH]c2ccccc2c2nc(-c3ccccc3)nn12	90
Cc1cc(NC(=O)c2cccc(S(=O)(=O)N3CCOCC3)c2)no1	101
O=C(NCCc1cccs1)N1CCN(C2c3ccccc3-c3ccccc32)CC1	95
CCCCCc1cc(O)c2c(c1)OC(C)(C)[C@@H]1CCC(C(=O)O)=CC21 (stereo partly specified)	100
O=C(NC1CCCc2ccccc21)c1ccc(CS(=O)c2ccc(Br)cc2)o1 (stereo unspecified)	115
CSc1nnc(Cn2c(=O)sc3ccccc32)n1-c1ccccc1C	102
COc1c(F)c(F)c(C(=O)O)c(Nc2ccc(C)cc2C)c1F	100
CC1CCN(C(=O)C2Cc3ccccc3CN2S(=O)(=O)c2ccc(F)cc2)CC1 (stereo unspecified)	90
CC(C)(C)C(=O)C1C2CCC1C(O)C2 (stereo unspecified)	101
O=C(C1=NOC2(C(=O)c3ccccc3C2=O)C1c1ccccc1)c1ccccc1 (stereo unspecified)	93
CC1SC(/N=C/c2ccc(N(C)C)cc2)=NNC1=O (stereo unspecified)	100
S=c1nccc(-c2ccc3c(c2)CCO3)[nH]1	104
CCCCC(=O)NCc1ccc2[nH]c3c(c2c1)CCCC3	78
O=S(=O)(Cc1cccc(Cl)c1)c1nc(C(F)(F)F)cc(C(F)(F)F)n1	100
N=C1/C(=C/c2ccc(OCCOc3ccccc3)c(Cl)c2)C(=O)N=C2SC=CN12	101
CCCCCCCC/C=C\CCCCCCCCOC[C@H](COP(=O)([O-])OCC[N+](C)(C)C)OC(C)=O	101
S=C(c1ccc(Cl)cc1)N1CCCCC1	100
Cc1ccc(NC(=O)COC(=O)C2CCC2)cc1Cl	101
COc1ccccc1C1C(C#N)=C2N=C(N)c3ccccc3N2C2=C1C(=O)CCC2 (stereo unspecified)	88
O=C(CN1C(=O)CC(c2ccccc2)Sc2ccccc21)c1ccccc1 (stereo unspecified)	100
Cc1ccc(C)c(NC(=O)c2nccnc2COC(=O)c2cccc(F)c2)c1	103
O=c1c(-c2ccccc2)c(O)cc(-c2ccc(F)cc2)n1-c1ccccc1	100
CC(C)N(Cc1ccccc1)C(=O)CN1C(=O)CSc2cc(S(=O)(=O)N3CCCC3)ccc21	95
COc1cccc(/C=C2/CCC/C(=C\c3cccc(OC)c3OC)C2=O)c1OC	96
CCOc1cc(-c2cc(C)c3c(ccc4ccccc43)n2)ccc1O	100
CCCc1n(CC(=O)C(C)(C)C)c2ccccc2[n+]1C	100
Cc1ccccc1OC1C(=O)N(CCc2ccc(F)cc2)C1c1ccc2c(c1)OCO2 (stereo unspecified)	106
O=C(COc1ncnc2ccccc12)NC1CCCCCC1	103
O=S(=O)(/C=C/c1ccccc1)N1CCc2ccccc21	90
COC(=O)c1onc(C(=O)c2ccccc2)c1C(=O)OC	97
O=C(CCN1C(=O)c2ccccc2C1=O)Nc1ncn[nH]1	101
Remaining list, next part
SMILES	Vaccinia pol inh
COc1ccc(CC(=O)Nc2ccc(-c3nnc4n3CCCCC4)cc2)cc1	106
Cc1cc2[nH]c(=O)c(=O)[nH]c2cc1S(=O)(=O)N1CCCc2ccccc21	104
COc1ccc(-c2nc3ccccc3c(=O)[nH]2)cc1	89
CC1CCN(S(=O)(=O)c2ccc3c(ccn3CC(=O)NCc3ccccc3)c2)CC1	100
CC1CC(=O)Nc2ccccc2N1S(=O)(=O)c1ccc(-c2cc(C(F)(F)F)on2)s1 (stereo unspecified)	93
O=C(O)c1cc2c(s1)CCC2	101
Cc1ccc(C2=NN=C(NC(=O)CSc3ccccc3)SC2)cc1	104
CSc1ccc(NC(=O)NCCCN2CCC(Cc3ccccc3)CC2)cc1	86
CCC(=O)c1c[nH]c(C(=O)Nc2ccc(OC)cc2)c1	99
CC(=O)c1sc2nsc(SCCN3CCOCC3)c2c1N	96
COc1ccc2[nH]c(=O)c(CN(c3ccccc3)S(=O)(=O)c3ccccc3)cc2c1	98
O=C1CS(=O)(=O)CC(=O)N1c1ccc(Cl)c(Cl)c1	106
CC1(C)CC(=O)c2cc(OCC(=O)NC3CCCC3)ccc2O1	112
COc1ccc(NS(=O)(=O)c2ccc3c(c2)OCC(=O)N3)cc1	91
O=C(NCc1ccc(Cl)c(Cl)c1)c1c[nH]c2ccccc12	96
Cc1cc(C)cc(-n2c(C)cc(/C=C3\SC(=O)NC3=O)c2C)c1	100
CN(Cc1ccccc1)C(=O)CSc1nc2ccc(Br)cc2c2nc3ccccc3n12	101
CC1CCCC(NC(=O)COC(=O)/C=C/c2ccco2)C1C (stereo unspecified)	86

High-throughput results as filed in PubChem.

The list is partial (hit frequency here may not be typical).
